# BmaI1 enzyme: BmaI1 acyl-homoserine lactone synthase inhibition – biochemical, fluorescence intensity, with counterscreen (AID 720554). BmaI1 enzyme assay, fluorescence intensity; hits give high values; test concentration not given here; a few actives read low; strong numbers were not always called active. inhibition, %. 12,000 compounds, 0.4% hits;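 active means both replicates within 2 robust z-scores of the inhibited control and a quiet counterscreen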;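 further: 0% = uninhibited enzyme and 100% = inhibited control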
# BmaI1 enzyme counterscreen: also measured in BmaI1 enzyme; calls as there; inhibition, %; measured here: counterscreen; design of the counterscreen not given here;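 first of two replicates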
# The depositor's hits bear a star.
No.	molecule	BmaI1 enzyme counterscreen	BmaI1 enzyme
1	CN(C)CC/C=C1/c2ccccc2COc2ccc(CC(=O)O)cc21	16	63
2	CCN(CC)CC1CCCCN1CC(=O)N1c2ccccc2C(=O)Nc2cccnc21 (stereo not given)	8	6
3	N=c1nc(N2CCCCC2)cc(N)n1O	10	4
4	CCCOc1ccc(C(=O)OCCN(CC)CC)cc1N	-5	-7
5	COc1ccc(-c2oc3c(CC=C(C)C)c(O[C@@H]4O[C@H](CO)[C@@H](O)[C@H](O)[C@H]4O)cc(O)c3c(=O)c2O[C@@H]2O[C@@H](C)[C@H](O)[C@@H](O)[C@H]2O)cc1	-26	-12
6	CN[C@@H]1[C@H](O)[C@H](NC)[C@H]2O[C@@]3(O)C(=O)C[C@@H](C)O[C@H]3O[C@@H]2[C@H]1O	9	-4
7	CN(CC1COc2ccccc2O1)c1ccc(S(=O)(=O)N2CCOCC2)cn1 (stereo not given)	-8	-7
8	CN(C)CCCSc1ccccc1NC(=O)/C=C/c1ccccc1	6	1
9	COc1cc(N)c(Cl)cc1C(=O)N[C@@H]1CCN(CCCOc2ccc(F)cc2)C[C@@H]1OC	0	2
10	CC1(C)O[C@@H]2C[C@H]3[C@@H]4C[C@H](F)C5=CC(=O)C=C[C@]5(C)[C@@]4(F)[C@@H](O)C[C@]3(C)[C@]2(C(=O)CO)O1	0	2
11	CC(C)(C)NCC(O)COc1cccc2c1C[C@H](O)[C@H](O)C2 (stereo not given in full)	10	-1
12	O=C1c2c(O)ccc(O)c2C(=O)c2c(NCCNCCO)ccc(NCCNCCO)c21	48	69

# Given with one line to a screen: five of the compounds above
2: CCN(CC)CC1CCCCN1CC(=O)N1c2ccccc2C(=O)Nc2cccnc21 (stereo not given)
3: N=c1nc(N2CCCCC2)cc(N)n1O
8: CN(C)CCCSc1ccccc1NC(=O)/C=C/c1ccccc1
10: CC1(C)O[C@@H]2C[C@H]3[C@@H]4C[C@H](F)C5=CC(=O)C=C[C@]5(C)[C@@]4(F)[C@@H](O)C[C@]3(C)[C@]2(C(=O)CO)O1
7: CN(CC1COc2ccccc2O1)c1ccc(S(=O)(=O)N2CCOCC2)cn1 (stereo not given)

Screen / compound no. | 2 | 3 | 8 | 10 | 7
BmaI1 enzyme counterscreen | 8 | 10 | 6 | 0 | -8
BmaI1 enzyme | 6 | 4 | 1 | 2 | -7

# Not all compounds are listed (hit frequency here may not be typical).
